# High-throughput results as filed in PubChem.
# TRPML1 inh: blocks the human TRPML1 channel | Q9GZU1 | TRPML1-inducible cells, Ca2+ dye fluorescence, FDSS; stronger effect = lower value; inhibition of EC80 agonist-evoked calcium signal | activity change, negative = inhibition, % (concentration not given with the values) | 0.02% of 390,000 active | AID 624415; in the data active means activity change below about -50%; inconclusive means about -30% to -50%; inactive means above about -30%;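 also: stimulus is agonist 54-4 at its EC80 concentration; % is scaled to controls: 0 for no effect and ±100 for the full control effect; compound concentration not given in the record; the text of the record puts the active cut at -80%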
# Target sequence (Q9GZU1 whole entry, looked up): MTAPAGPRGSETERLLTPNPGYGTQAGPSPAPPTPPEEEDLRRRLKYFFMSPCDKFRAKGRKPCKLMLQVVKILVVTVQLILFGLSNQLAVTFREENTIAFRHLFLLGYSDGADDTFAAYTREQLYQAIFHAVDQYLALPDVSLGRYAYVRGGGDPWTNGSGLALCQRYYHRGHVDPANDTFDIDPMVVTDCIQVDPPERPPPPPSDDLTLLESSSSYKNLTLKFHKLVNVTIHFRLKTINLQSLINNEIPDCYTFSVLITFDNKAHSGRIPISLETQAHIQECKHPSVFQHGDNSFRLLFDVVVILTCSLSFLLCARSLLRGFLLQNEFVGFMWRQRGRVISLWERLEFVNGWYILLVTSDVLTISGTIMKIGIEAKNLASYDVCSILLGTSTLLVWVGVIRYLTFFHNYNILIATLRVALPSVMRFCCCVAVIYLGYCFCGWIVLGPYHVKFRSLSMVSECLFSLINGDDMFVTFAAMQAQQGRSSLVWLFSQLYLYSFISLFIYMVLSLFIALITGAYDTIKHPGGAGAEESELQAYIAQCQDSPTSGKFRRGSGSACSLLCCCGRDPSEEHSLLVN
#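 Calcium fluorescence in TRPML1-DL cells induced overnight with Tet: a 110 s read after compound pin addition, then a 110 s antagonist read after challenge with 54-4 at 4 uM final (EC80).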
# D2 PAM: potentiates the human D2 dopamine receptor allosterically. P14416. DiscoveRx D2 beta-arrestin cells, luminescence, 90 min; 100% = 57 uM dopamine signal. potentiation, % (concentration not given with the values). 0.23% of 360,000 active; active = potentiation of 50% or more; inconclusive = 30% to 50%; inactive = 30% or less;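 also: compound concentration not given in the record; tested on top of an EC20 dose of dopamine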
# Target sequence (P14416 whole entry, looked up): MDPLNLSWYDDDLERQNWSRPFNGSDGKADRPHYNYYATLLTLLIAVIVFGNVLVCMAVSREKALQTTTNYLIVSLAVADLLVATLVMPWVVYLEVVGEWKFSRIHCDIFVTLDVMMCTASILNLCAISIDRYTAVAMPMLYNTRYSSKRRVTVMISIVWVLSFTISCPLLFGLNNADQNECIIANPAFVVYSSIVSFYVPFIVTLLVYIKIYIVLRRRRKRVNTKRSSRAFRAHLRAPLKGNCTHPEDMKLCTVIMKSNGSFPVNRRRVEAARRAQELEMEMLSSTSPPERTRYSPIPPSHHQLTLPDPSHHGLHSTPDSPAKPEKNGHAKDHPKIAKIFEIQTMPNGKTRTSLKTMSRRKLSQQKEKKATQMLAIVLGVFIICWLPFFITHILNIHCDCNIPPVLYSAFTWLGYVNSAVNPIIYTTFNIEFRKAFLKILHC
#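 PathHunter D2 cells, attached overnight at 37 deg C, received compound in DMSO plus dopamine at EC20 (50 nM final) for 90 min at 37 deg C. Beta-arrestin recruitment was read as luminescence after 1 h with detection reagent at ambient temperature.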
# TRPML1 ag: human mucolipin-1 channel agonism; Q9GZU1; TRPML1-expressing cells, Ca2+ dye fluorescence, FDSS; host cell line not named in the record; reference of the full effect not given here; activation, % (test concentration not listed); 0.12% of 410,000 active; AID 624414; in the data active = activation above about 50%; inconclusive = about 30% to 50%; inactive = below about 30%; also: 0% is about no effect; the text of the record puts the active cut at 80%
#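 Tet-induced TRPML1-DL cells, 1,500 per well, cultured overnight, were loaded with a no-wash Ca2+ dye for 45–90 min. Calcium fluorescence was recorded on the FDSS for 110 s after compound addition, before the EC80 agonist (4 uM 54-4) was added.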
# CtBP-E1A blk: inhibitors of CtBP/E1A interaction | AlphaScreen GST-E1A/His-CtBP binding, 1536-well; stronger effect = lower value; control for the full effect not named in the record | activity change, % (test concentration not listed) | 0.49% of 340,000 active | AID 651724; in the data active means activity change below about -65%; inconclusive means about -30% to -65%; inactive means above about -30%; also: % is scaled to controls: 0 for no effect and ±100 for the full control effect; compound concentration not given in the record
#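 AlphaScreen with 125 nM GST-E1A and 125 nM His-CtBP (5X stocks) in Tris pH 8.0, 300 mM NaCl, BSA, Tween 20, TCEP. Compounds preincubated 2 h at 37 deg C, then glutathione donor/nickel acceptor beads added for 1 h at 37 deg C in dark.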
# Six1-Eya2 blk: Six1/Eya2 interaction inhibition; AlphaScreen GST-Six1/His-Eya2 binding, biochemical; stronger effect = lower value; control for the full effect not named in the record; activity change, % (concentration not given with the values); 0.56% of 360,000 active; AID 651725; in the data active = activity change below about -65%; inconclusive = about -30% to -65%; inactive = above about -30%; also: % is scaled to controls: 0 for no effect and ±100 for the full control effect
#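 Homogeneous AlphaScreen proximity assay pairing GST-Six1 with His-tagged Eya2 (added as 5X mix: 250 nM and 500 nM) in 50 mM Tris pH 8.0, 300 mM NaCl, 1 mM TCEP. Glutathione donor and nickel acceptor beads; 1 h, 37 °C, dark.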
# TRPV1 PAM: human TRPV1 potentiation. Q8NER1. TRPV1-expressing cells, Fluo-8 calcium influx, capsaicin EC20 potentiation; host cell line not named in the record; control for the full effect not named in the record. potentiation, % at 8.33 µM. 0.02% of 320,000 active. AID 540277; active means potentiation above 80%; inconclusive means 30% to 80%; inactive means below 30%; also: 0% is about no effect
#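 Cells expressing TRPV1 were dye-loaded with Fluo-8 and read kinetically: 10 s baseline, 3 min after compound (agonist portion), then 2 min after EC20 capsaicin (allosteric enhancer portion). Calcium-bound dye fluorescence at 480/520 nm.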
# Active calls of the source: *; u = inconclusive; x = no result given.
Molecule	TRPML1 inh	D2 PAM	TRPML1 ag	CtBP-E1A blk	Six1-Eya2 blk	TRPV1 PAM
O=C1CC(NC(=O)C(F)(F)F)c2cc3c(cc21)OCO3 (stereo not drawn)	29.1	-2.9	-0.2	3.3	0.8	-22.0
CCOC(=O)/C(=C/c1ccc(OC(F)F)cc1)C1=Nn2c(nnc2-c2ccc(Cl)cc2)SC1	-6.8	-9.3	1.5	-6.2	1.7	x
Cc1ccc(NC(=O)CCc2ccc(C)o2)c(C)c1	-8.2	-5.5	-0.5	1.6	-5.7	4.1
COCc1nnc(NC(=O)C2CCN(C(=O)c3ccco3)CC2)s1	-9.0	-1.7	-0.5	-4.0	-1.3	2.1
Cc1cc(C(=O)Nc2ccccc2)oc(=O)c1	-13.7	0.8	1.2	-8.4	4.3	-5.4
Cc1c(Cl)cccc1NC(=S)NCCC(c1ccccc1)c1ccccc1	-1.1	u	-0.2	-20.6	-16.1	-5.5
CCC(CC)C(=O)c1c[nH]c(C(=O)NCc2cccs2)c1	2.4	-17.5	-1.1	0.9	1.3	-0.5
COC(=O)c1sc(NC(=S)NC(=O)c2ccccc2Cl)nc1C	-27.0	1.7	4.2	-4.7	-5.7	-11.4
CN1CCN(c2nc(-c3ccccc3Cl)nc3ccccc23)CC1	x	-23.1	x	5.1	-5.1	6.8
COc1ccc(C=CC(=O)c2ccc(OC)c(OC)c2O)cc1OC	3.5	0.6	1.4	3.6	-2.3	x
Cc1cc(C(F)(F)F)c2c(C)nn(CCc3nn[nH]n3)c2n1	59.0	2.3	-0.2	5.2	-0.9	-6.5
CCCCC(c1nnnn1C1CCCC1)N1CCN(C(=O)c2ccco2)CC1 (stereo not drawn)	13.7	-4.2	1.0	-2.3	4.0	24.3
Cc1ccc2c(c1)C(c1ccc(O)cc1)(c1ccc(O)cc1)C(=O)N2C	17.3	-5.3	-0.4	-0.4	-4.4	-9.8
Oc1c(CN2CCOCC2)ccc2ccccc12	-0.4	10.2	-0.3	-1.5	-7.4	18.2
CN(Cc1ccccc1)S(=O)(=O)c1ccc(Cl)c(C(=O)OCC(N)=O)c1	-3.8	3.1	0.6	-1.5	3.5	2.2
CCCCc1c(O)c2ccccc2[nH]c1=O	13.4	-15.5	-0.2	0.0	-0.4	-4.4
O=C(CSc1nnc(CNC(=O)c2ccccc2F)o1)NCCc1ccccc1	-1.8	1.4	-0.4	0.6	0.6	3.0
COc1cc(-c2cc(-c3ccc(F)cc3)nc(N)c2C#N)ccc1O	47.0	-13.8	2.3	-17.7	-3.5	-6.4
O=C(Nc1nc2ccsc2c(=O)s1)C1CCC1	-2.0	-9.4	-0.2	-0.8	-15.1	-12.4
Cc1cccc(NC(=O)C2C3C=CC4(O3)C2C(=O)N(CCCN2CCCC2)C4C(=O)NC2CCCC(C)C2C)c1 (stereo not drawn)	-7.7	-16.0	0.2	1.5	1.9	-15.3
Cc1ccc(S(=O)(=O)N2CCCCC2)cc1NC(=O)CSc1ncn[nH]1	-8.2	-0.5	0.0	-7.0	4.4	9.3
CCc1cc(C(=O)NC2CCCc3c2cnn3-c2cccc(C)c2C)n(C)n1 (stereo not drawn)	10.7	-6.6	0.5	2.9	-15.2	-4.4
COc1ccc(-c2csc(CCn3nc(C)cc3C)n2)cc1OC	18.6	1.2	0.0	-4.2	-4.1	6.1
COc1cc(CNC(=O)c2cnccn2)cc(OC)c1	7.8	-24.2	0.3	x	10.9	x
Cc1ccc2c(c1)=N/C(=N\c1[nH]c(O)c3ccccc13)N=2	1.1	2.2	-0.7	-18.0	-21.6	x
COc1ccc(NC(=S)NCC2CCCO2)c(OC)c1 (stereo not drawn)	-0.3	-2.3	0.2	4.4	2.8	21.2
CC(C)NC(=O)CN1CCC(c2ccccc2)C(O)C1 (stereo not drawn)	-18.6	2.6	0.1	6.0	-0.3	1.7
Cc1nn(S(=O)(=O)c2ccc(Br)cc2)c(C)c1S(=O)(=O)N1CCOCC1	1.0	-6.5	-0.6	-1.0	1.0	15.6
O=C(CC1C(=O)N(c2ccccc2)C(=O)N1Cc1ccco1)Nc1ccccc1 (stereo not drawn)	13.8	-1.9	0.4	3.0	0.0	0.6
Cc1ccc(-c2nnc(Nc3ccc(C(=O)N(C)C)cc3)c3ccccc23)cc1S(=O)(=O)NC(C)(C)CO	-3.1	0.4	1.4	-8.8	-8.0	-21.5
Cc1ccc(S(=O)(=O)Nc2ccc3nc(C)sc3c2)cc1	-0.5	15.2	-1.4	1.3	-1.9	8.7
O=C1OC(c2cccs2)=N/C1=C\c1ccc(-c2cccc(Cl)c2)o1	7.6	-9.4	0.0	-24.6	-17.5	2.0
O=C(Nc1ccccc1O)c1cc(S(=O)(=O)N2CCOCC2)c(Cl)cc1Cl	35.3	6.9	-0.3	u	-21.1	17.4
Cc1ccc(C(=O)CSc2nnc(-c3cccnc3)n2N)cc1	-10.3	-6.7	3.2	u	-21.5	u
O=C(O)CN1C(=O)C(=O)N(Cc2c(F)cccc2Cl)C1=O	5.3	-4.4	1.3	-4.8	-9.3	u
O=C(Nc1ccccc1)c1ccccc1OCc1ccc(F)cc1	43.0	-2.0	5.3	10.3	6.6	-12.4
c1ccc(CNc2nc(NCc3ccccc3)c3ccccc3n2)cc1	20.8	-9.3	u	-2.8	14.0	13.7
COC(=O)CSc1nnc(CNC(=O)c2cc(OC)c(OC)c(OC)c2)n1C	-13.0	-3.8	-0.1	1.1	-0.3	-3.2
O=C(COc1cccc2c1CCNC2=O)Nc1cccc(F)c1	8.6	-2.5	3.3	-19.4	-4.7	-2.3
CCn1c(N2CCN(C(=O)Nc3ccc(F)cc3)CC2)nc2ccccc21	-6.5	-4.8	-0.6	1.4	-0.5	-21.6
CCCS(=O)(=O)Nc1cccc(-c2ccc3nnc(C)n3n2)c1	-4.0	-6.0	0.2	x	-25.4	-2.2
CC(NC(=O)COC(=O)C1CCCCC1)c1ccccc1 (stereo not drawn)	-26.4	10.1	0.0	-3.5	-1.4	x
COc1ccc(CN2CCNC(=O)C2CC(=O)NCCCC2CCCC2)c(C)c1C (stereo not drawn)	-11.0	-5.8	-0.2	7.8	-3.2	1.4
CC(OC(=O)c1ccc(Cl)nc1)C(=O)NCc1ccc2c(c1)OCO2 (stereo not drawn)	16.7	-5.5	0.7	0.0	2.4	-11.6
C=C(C)CN(CC)C(=O)c1ccc(OC2CCN(S(=O)(=O)N(C)C)CC2)cc1	29.2	-32.8	2.4	x	6.0	-8.3
Cn1cnnc1SCC(=O)c1cccc([N+](=O)[O-])c1	4.6	27.3	-0.1	-5.7	4.3	0.6
CC(=O)NCc1c(Cl)cccc1-n1cccc1	55.6	-12.7	-0.4	-4.4	3.4	x
COC(=O)/C=C1\NCCSC1=O	-4.4	-3.3	-0.3	2.1	2.4	-4.2
O=C(OC(C(=O)c1c[nH]c2ccccc12)c1ccccc1)c1cnccn1 (stereo not drawn)	1.1	-22.1	0.9	-23.7	-26.9	16.0
O=C(CCc1nc2ccccc2c(=O)[nH]1)Nc1ccccc1N1CCCCC1	-8.6	-24.1	0.8	-3.2	0.7	x
CCOCCCN1C(=O)C(=O)N(CC(=O)N2c3ccccc3NC(=O)CC2C)C1=O (stereo not drawn)	44.9	-6.1	4.8	-3.2	-0.8	-11.4
Nc1ncc2c(n1)-c1ccoc1CC2	-11.1	-4.2	-0.7	-7.9	-15.1	8.5
CC(=O)Nc1cccc(CNCc2cccc(NC(C)=O)c2)c1	7.9	-2.8	0.0	x	8.8	-5.9
CC(C)(CO)NCc1cccs1	-0.5	0.1	0.5	x	17.5	-17.4
O=C(O)c1[nH]c2ccc(Cl)cc2c1CCN1C(=O)c2ccccc2C1=O	-3.2	-9.3	-0.2	-1.9	2.3	-4.4
COc1cc2c(cc1OC)C(C)=NCC2	-7.1	-3.0	0.0	0.0	21.0	21.3
O=C(Cc1ccccc1)NNC(=O)Nc1ccccc1	-10.3	-10.0	-0.3	-2.0	-8.1	3.1
Cc1ccc(C(=O)Oc2ccc(-c3nccc(-c4ccccn4)n3)cc2)cc1	-11.1	-9.0	1.1	-6.0	0.2	4.2
CCNc1nc(SCC(=O)OC)nc(N2CCOCC2)n1	21.7	-13.1	1.4	5.5	2.5	6.0
COc1cccc(N2CC(O)=C(c3ccccc3)C2=N)c1	46.0	-10.4	-0.6	-1.2	-0.5	-13.8

# More records.
Molecule	TRPML1 inh	D2 PAM	TRPML1 ag	CtBP-E1A blk	Six1-Eya2 blk	TRPV1 PAM
C[C@@H]1CN([C@@H](C)CO)C(=O)c2cccc(NC(=O)C3CCCCC3)c2O[C@@H]1CN(C)C(=O)NC1CCCCC1	2.2	-14.3	0.3	7.7	-4.2	x
O=C(/C=C/c1ccc(Cl)cc1)Nc1ccc(CN2CCOCC2)cc1	4.3	-1.9	-0.4	0.4	-0.9	-4.4
CN(Cc1nc2ccccc2c(=O)[nH]1)C(=O)c1ccc(NC(=O)CSc2nnnn2C)cc1	10.7	-15.0	1.8	-1.8	2.6	2.9
Nc1nc(-c2ccccc2)cs1	-5.7	-10.9	-0.4	12.5	0.3	23.6
Nc1ccc(C(=O)c2cccs2)cn1	7.1	-19.0	-0.3	x	0.2	-6.7
C#CCOCCOCCOCCNc1nc(N2CCN(C(=O)Cn3cc(CCCN=C(N)N)nn3)CC2)nc(N2CCN(C(=O)Cn3cc(CC(C)O)nn3)CC2)n1 (stereo not drawn)	-6.8	-4.3	-0.7	-4.5	-1.8	x
CCCn1c(SCC(=O)NCC)nc2sc3c(c2c1=O)CCC3	28.6	-1.5	2.2	-1.8	9.2	-16.0
Cc1ccc(CNC(=O)COc2ccc(C)nc2[N+](=O)[O-])cc1	13.4	-17.1	-0.5	-6.5	0.3	13.2
CC(O)C(NS(=O)(=O)c1ccc(Cl)cc1)C(=O)OCC(=O)c1ccc2c(c1)NC(=O)CO2 (stereo not drawn)	9.9	-13.9	0.7	7.3	-1.4	x
Nc1c2c(nc3ccccc13)N(c1ccccc1)CC2	-7.9	-11.3	-0.4	2.2	5.0	-9.5
Cc1ccc(NC(=O)/C=C\C(=O)NCC(=O)O)cc1C	-0.8	1.4	0.7	-6.6	1.3	0.2

# Reformatted: results already given.
# Every second line gives: TRPML1 inh | D2 PAM | TRPML1 ag | CtBP-E1A blk | Six1-Eya2 blk | TRPV1 PAM
- C[C@@H]1CN([C@@H](C)CO)C(=O)c2cccc(NC(=O)C3CCCCC3)c2O[C@@H]1CN(C)C(=O)NC1CCCCC1
→ 2.2 | -14.3 | 0.3 | 7.7 | -4.2 | x
- O=C(/C=C/c1ccc(Cl)cc1)Nc1ccc(CN2CCOCC2)cc1
→ 4.3 | -1.9 | -0.4 | 0.4 | -0.9 | -4.4
- CN(Cc1nc2ccccc2c(=O)[nH]1)C(=O)c1ccc(NC(=O)CSc2nnnn2C)cc1
→ 10.7 | -15.0 | 1.8 | -1.8 | 2.6 | 2.9
- Nc1nc(-c2ccccc2)cs1
→ -5.7 | -10.9 | -0.4 | 12.5 | 0.3 | 23.6
